# Mtb bLac sens: beta-lactam sensitization of Mtb H37Rv; M. tuberculosis H37Rv growth with meropenem, percent inhibition; hits of this screen are not shown here; inhibition, % at 25 µM; 330,000 tested, 0.27% active;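 active = about 74% or more and at least 40 points above the plate without the antibiotic, then above 30% in a dose series; inconclusive = first-round hits that could not be retested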;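 note: growth measured after seven days incubation then overnight dye step; 0% = bacteria only wells and 100% = bacteria with antibiotic; twin plates without the antibiotic show which effects depend on it; some results filed as inactive read as strong as hits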
# Mtb H37Rv: M. tuberculosis H37Rv growth inhibitors, H37Rv strain (AID 1626); one-dose inhibition, % at 10 µM; IC50 in µM for titrated hits; 220,000 tested, 0.95% active; M. tuberculosis H37Rv growth inhibition; higher % means a stronger effect;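 active = confirmed in a dose series; inconclusive = inhibition above 80% but not taken into the dose series; inactive = below 80% or under 30% at every dose of the series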;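 note: bacteria incubated seven days before Alamar blue readout; 0% = bacteria only wells and 100% = bacteria with antibiotic wells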
# YopH inh: blocks Yersinia enterocolitica YopH tyrosine phosphatase. fluorescence Ex485/Em525. inhibition, %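 (about 10 µM by stock and volumes)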. 140,000 tested, 0.16% active. AID 898;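 active = inhibition of 50% or more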;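 note: controls were vehicle for no effect and minimum signal wells for full effect; inactives centre near -20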
# Arbovirus inh: antivirals against arbovirus infection | arbovirus infection cell-based antiviral screen | inhibition, % at 10 µM | 200,000 tested, 0.37% active | AID 1251;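 active = inhibition from about 30%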;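 note: bluetongue infection of BSR cells; cell survival read as ATP light after 72 h; 0% = infected wells without compound and 100% = uninfected wells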
# RecA splice inh: inhibitors of M. tuberculosis RecA intein splicing; inhibition, %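 (about 9 µM by stock and volumes)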; P9WHJ3; 290,000 tested, 0.75% active; cell-free RecA intein splicing, fluorescence; in the data active = inhibition above about 30%; inconclusive = no clear call, values can overlap the other calls;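 note: 0% = vehicle wells and 100% = reference inhibitor control wells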
# Target sequence (P9WHJ3 whole entry, looked up, canonical isoform): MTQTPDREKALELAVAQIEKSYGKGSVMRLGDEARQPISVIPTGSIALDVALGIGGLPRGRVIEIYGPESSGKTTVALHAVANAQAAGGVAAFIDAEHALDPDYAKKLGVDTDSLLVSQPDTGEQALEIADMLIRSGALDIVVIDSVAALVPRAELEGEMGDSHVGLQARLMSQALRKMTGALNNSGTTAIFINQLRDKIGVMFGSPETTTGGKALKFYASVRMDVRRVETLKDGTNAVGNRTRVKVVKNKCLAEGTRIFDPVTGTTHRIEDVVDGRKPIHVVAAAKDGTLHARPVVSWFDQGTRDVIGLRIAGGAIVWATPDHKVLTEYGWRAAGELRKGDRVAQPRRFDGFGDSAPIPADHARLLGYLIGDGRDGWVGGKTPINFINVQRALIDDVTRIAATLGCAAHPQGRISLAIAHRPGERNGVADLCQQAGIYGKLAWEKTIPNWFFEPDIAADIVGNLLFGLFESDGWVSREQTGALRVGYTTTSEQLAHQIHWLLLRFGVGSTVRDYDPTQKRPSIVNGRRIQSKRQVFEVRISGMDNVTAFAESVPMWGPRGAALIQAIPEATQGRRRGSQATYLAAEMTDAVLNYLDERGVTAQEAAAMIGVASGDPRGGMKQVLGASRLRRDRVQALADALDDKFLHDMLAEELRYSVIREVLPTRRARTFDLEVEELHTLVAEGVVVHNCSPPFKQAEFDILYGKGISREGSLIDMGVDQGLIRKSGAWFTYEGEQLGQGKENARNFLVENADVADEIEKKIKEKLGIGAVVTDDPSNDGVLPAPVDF
# Arbovirus inh repeat: further read-out of Arbovirus inh, marked with its call; inhibition, %; measured here: 10K subset replicate screen; many hits read low in the repeat;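 first of two repeat runs on a subset; 0% = infected and 100% = uninfected wells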
# The depositor's hits bear a star; ? = inconclusive; . = not tested or not shown; & = joins results of further samples. Some of the compounds tested; count on the stated rates, not on these rows.
SMILES,Mtb bLac sens,Mtb H37Rv,YopH inh,Arbovirus inh,RecA splice inh,others
COC(=O)C(C)N1C(=O)S/C(=C/c2cc(C)n(-c3ccccn3)c2C)C1=O (configuration not stated),82,.,0,-2,-1.6,
CCOc1ccc(N=CNc2ccc(OCC)cc2)cc1,97,.,.,.,1.0,
CCCCCc1ccc(-c2cn(Cc3ccc4ccccc4c3)nn2)cc1,-10,.,.,.,-5.3,
C[C@@H]1CCC[C@]2(O[C@H](CCO)C[C@H](O)[C@H]2O)O1,-6,-7%,.,.,0.0,
O=C(COC(=O)CNC(=O)c1sc2ccccc2c1Cl)Nc1cc(Cl)cc(Cl)c1,3,-3%,.,2,-1.0,
O=C(COc1ccc2ccccc2c1Br)Nc1ccncc1,0,.,.,.,-0.7,
COc1ccc(C)cc1Nc1n[n+](-c2ccccc2)c(-c2ccc(C(=O)O)cc2)s1,0,.,.,.,2.4,
COc1ccc(COC(=O)C2CCN(S(=O)(=O)c3cccs3)CC2)cc1,-3,.,.,.,4.3,
O=C1NN=C(c2ccc(Br)cc2)CC1c1ccc(Cl)cc1 (configuration not stated),-5,1%,.,12,17,
Cc1cccc2sc(NNC(=O)c3ccc(S(=O)(=O)N4CCc5ccccc5C4)cc3)nc12,-4,.,3,-34,0.5,
COCCNC(=O)CS(=O)Cc1nc(-c2ccc(Cl)cc2)oc1C (configuration not stated),-4,.,-31,4,-0.1,Arbovirus inh repeat=-2
COc1ccc(C2C(C#N)=C(N)OC3=C2C(=O)CC(C)(C)C3)cc1Cn1cc([N+](=O)[O-])cn1 (configuration not stated),11,1%,-21,15,-0.8,
CCn1ncc(/C=N/NC(=O)c2cc(Cl)ccc2OC)c1C,6,-2%,-32,-3,-2.1,
Cc1ccc(-n2c(C)cc(C(=O)COC(=O)c3ccc[nH]c3=O)c2C)cc1C,0,3%,-24,-3,-1.5,
O=S(=O)(c1ccccc1)n1ccc2ccccc21,-2,-7%,-26,-6,9.7,Arbovirus inh repeat=-1
N#Cc1ccc(CNc2cnccn2)cc1,-3,-4%,-20,8,0.8,
CCOC(=O)COc1ccc(S(=O)(=O)NCCC2=CCCCC2)cc1,98,12µM*,-30,8,-0.9,
O=C(NCc1ccco1)C(Cc1ccccc1)NS(=O)(=O)c1cccc2nsnc12 (configuration not stated),3,-2%,-49,4,0.3,
Cc1sc2nc(SCC(=O)Nc3ccc(S(=O)(=O)NCCCC(=O)O)cc3)[nH]c(=O)c2c1C,-4,-3%,.,8,4.6,
N#CCCn1cc(C(=O)N2CCCCC2)c(-c2cccc([N+](=O)[O-])c2)n1,-4,3%,.,-1,-3.1,
Cc1cc(NC(=O)CCCN2C(=O)/C(=C\c3cccs3)SC2=S)no1,8,7%,-18,4,-1.5,
Cc1nc2c3cc(F)ccc3n(Cc3ccccc3F)c2s1,52,15%,-19,-11,18,
Cc1nn(CC(=O)c2ccccc2)c(=O)c2nn(-c3ccccc3F)c(C)c12,-4,2%,-11,-2,-0.3,
CCOC(=O)N1CCN(CC(O)COc2ccccc2[N+](=O)[O-])CC1 (configuration not stated),-5,.,.,.,1.5,
Cc1cc(C(=O)N2CCCC(C(=O)c3cccc4ccccc34)C2)nc(C)n1 (configuration not stated),-4,7%,.,1,3.9,

# 2 neighbouring entries already listed:
SMILES,Mtb bLac sens,Mtb H37Rv,YopH inh,Arbovirus inh,RecA splice inh,others
COc1ccc(C2C(C#N)=C(N)OC3=C2C(=O)CC(C)(C)C3)cc1Cn1cc([N+](=O)[O-])cn1 (configuration not stated),11,1%,-21,15,-0.8,
CCn1ncc(/C=N/NC(=O)c2cc(Cl)ccc2OC)c1C,6,-2%,-32,-3,-2.1,

# The listing picks up; the 6 compounds before the break are reprinted first.
SMILES,Mtb bLac sens,Mtb H37Rv,YopH inh,Arbovirus inh,RecA splice inh,others
N#CCCn1cc(C(=O)N2CCCCC2)c(-c2cccc([N+](=O)[O-])c2)n1,-4,3%,.,-1,-3.1,
Cc1cc(NC(=O)CCCN2C(=O)/C(=C\c3cccs3)SC2=S)no1,8,7%,-18,4,-1.5,
Cc1nc2c3cc(F)ccc3n(Cc3ccccc3F)c2s1,52,15%,-19,-11,18,
Cc1nn(CC(=O)c2ccccc2)c(=O)c2nn(-c3ccccc3F)c(C)c12,-4,2%,-11,-2,-0.3,
CCOC(=O)N1CCN(CC(O)COc2ccccc2[N+](=O)[O-])CC1 (configuration not stated),-5,.,.,.,1.5,
Cc1cc(C(=O)N2CCCC(C(=O)c3cccc4ccccc34)C2)nc(C)n1 (configuration not stated),-4,7%,.,1,3.9,
Cc1nnn(C23CC4CC(CC(C4)C2)C3)n1,6,-3%,36,4,-0.5,
COc1ccc(CNc2nc(C)c([N+](=O)[O-])c(C)c2C#N)cc1,1,-10%,-15,4,2.5,
O=c1[nH]c2cccnc2n1-c1cccc([N+](=O)[O-])c1,2,2%,.,.,1.0,
CCc1nn2c(N)c(/C=C3\C=Nc4ccccc43)c(=O)nc2s1,5&5,-4%&0%,-5,31*,-0.9&-3.0,
O=C(NC1CCCC1)c1ccc(Cn2c(=O)[nH]c3ccsc3c2=O)cc1,-5,3%,.,.,-2.7,
NNC(=O)Cn1c(COc2ccc(Cl)cc2)nc2ccccc21,3,4%,4,-4,3.2,
Cc1oc2cc3oc(=O)c(CCC(=O)NCCCN4CCCC4=O)c(C)c3cc2c1C,0,.,.,.,-0.6,
CC(C)CCN(C(=O)c1csnn1)C(C(=O)NC1CCCC1)c1ccccc1 (configuration not stated),-4,.,.,.,3.3,
O=Cc1c(NCc2ccccc2)c2ccccc2[nH]c1=O,3,.,.,.,-1.0,
CC(Oc1ccccc1Br)C(=O)N1CCc2ccccc21 (configuration not stated),-6,-1%,-50,2,-6.6,
CC(=O)c1ccccc1NC(=O)COC(=O)/C=C/c1cccs1,5,.,.,.,0.1,
CCCNC(=O)COC(=O)/C=C/c1cccc(F)c1,2,-1%,.,15,1.6,
Cc1nc2ccccc2nc(C)c1=NOCc1ccc(Cl)cc1Cl,4,0%,-5,2,3.8,
COc1cccc(C(=O)CN(C(=O)c2ccc(Cl)cc2Cl)N2C(=O)c3ccccc3C2=O)c1,3,-1%,-39,3,-7.4,
Cn1ncc(C#N)c1NC(=O)c1cc(-c2ccccc2Cl)on1,-6,-9%,-4,10,2.1,
O=C(O)c1cnn2c1NC(c1cccs1)CC2C(F)(F)F (configuration not stated),-4,-8%,-45,3,.,Arbovirus inh repeat=6
O=c1[nH]cnc2sc(-c3ccccc3)cc12,84,40%,-35,-5,-0.3,
CCc1ccc(C(=O)COC(=O)CNC(=O)COc2ccccc2)cc1,10,-6%,-30,-4,1.5,
O=C(CN1C(=O)c2ccccc2S1(=O)=O)c1ccc2c(c1)OCCO2,-8,1%,.,.,0.0,
COc1ccc(CNC(=O)C(C)c2ccc([N+](=O)[O-])cc2)cc1 (configuration not stated),-8,9%,.,1,-2.3,
COC(=O)c1ccc(C)c(NC(=O)CCc2cc(OC)c(OC)c(OC)c2)c1,1,-17%,-32,-8,9.9,
CC(C)N1C(=O)CCC1C(=O)NCc1cccs1 (configuration not stated),-6,-2%,.,-4,1.2,
O=C(NC(=S)Nc1ccc2[nH]c(=O)[nH]c2c1)c1ccccc1F,-5,.,.,.,-0.9,
CC(=O)Nc1ccc(NC(=O)COC(=O)c2c(C)nn(-c3ccccc3)c2C)cc1,0,5%,-34,6,2.6,
O=C(O)c1cccc(N2C(=O)c3ccc(Oc4ccc(Cl)cc4)cc3C2=O)c1,-1,3%,.,7,5.7,

# (cont.)
SMILES,Mtb bLac sens,Mtb H37Rv,YopH inh,Arbovirus inh,RecA splice inh,others
COc1cc(OC)c(NC(=O)CCNS(=O)(=O)c2ccc3c(c2)oc(=O)n3C)cc1Cl,-6,-4%,.,10,2.2,
C=CCOc1ccc(/C=C2\SC(N)=NC2=O)cc1OC,18,.,.,.,0.2,
COc1ccc(C(=O)N/N=C(\C)CC(=O)Nc2ccc3c(c2)OCO3)cc1,-1,-13%,.,.,0.2,
COc1ccc(/C(C#N)=C/c2c(-c3ccc(Cl)cc3)nc3c(C)cccn23)cc1,-7,9%,-5,7,-3.0,
O=S(=O)(NCc1csc(-c2cccnc2)n1)c1ccc(F)cc1,-2,.,.,.,3.3,
Cc1cc(/C=C2/NC(=O)NC2=O)c(C)n1-c1cccnc1,-7,0%,-11,6,-0.5,
Cc1ccc(NC(=O)CCC(=O)c2ccc(Br)cc2)cc1,4,.,.,.,2.0,
Cc1ccccc1N1C(=O)c2ccccc2C1Nc1cccnc1 (configuration not stated),-5,-7%,-27,5,33*,
CCOC(=O)C1(CCCCCCOc2ccc(Cl)cc2)CO1 (configuration not stated),98,71%&78%,.,-3,-2.1,
COc1cc(C=O)c(Br)cc1OCC(=O)NCc1ccccc1,1,6%,.,3,2.5,
O=C(/C=C/c1ccco1)N/C(=C\c1ccco1)C(=O)NCCc1nc2ccccc2[nH]1,-2,2%,-36,3,4.9,
Cc1ccccc1NC(=O)CN(C)S(=O)(=O)c1cccs1,-4,.,.,.,-0.6,
COc1cc(/C=N/N=C2/C(=O)Nc3ccccc32)ccc1O,3,3%,-42,-6,0.4,
CCOC(=O)c1csc(-c2sccc2Br)n1,58,10%,.,.,2.9,
COc1ccc(C(=O)NCC(=O)N/N=C/c2cccc(OC(=O)c3ccco3)c2)cc1OC,-5,-2%,.,4,7.2,
Cc1ccccc1OC(C)C(=O)Nc1cccnc1 (configuration not stated),-9,.,.,.,2.3,
CO/N=C/c1cn(-c2ccc(Cl)cc2)nn1,-15,?,.,0,-0.4,
CNC(=O)c1[nH]cnc1C(=O)NCC(=O)OCc1ccccc1,-11,.,.,.,0.5,
CC(C)OC(=O)CC12CN(C)CC(CC(=O)OC(C)C)(CN(C)C1)C2=O,-13,-7%,-8,10,-1.5,
Cc1ccc(NC(=S)N/N=C/c2c(Cl)cccc2Cl)c(C)c1,-1,16%,-27,11,7.3,
COc1ccc(-c2nn(CC(=O)N3CCCCC3)c(=O)c3ccccc23)cc1,27,.,15,2,3.8,
O=C(NNC(=O)c1ccc(NC(=O)c2ccccc2)cc1)c1ccc(F)cc1,-5,.,.,.,-1.5,
CC(=O)Nc1ccc(-c2nn[nH]n2)cc1Cl,4,-8%,-18,8,-0.7,
CCn1ccnc1CN1CCCC(C(=O)c2cc(C)c(OC)c(C)c2)C1 (configuration not stated),26,9%,.,1,1.9,
CN(C)c1ccc(C=C2C(=O)OC(C)(C(C)(C)C)OC2=O)cc1 (configuration not stated),-4,-15%,-27,0,-1.4,

# Next structures
SMILES,Mtb bLac sens,Mtb H37Rv,YopH inh,Arbovirus inh,RecA splice inh,others
CC(=O)Nc1cc2c(cc1NC(=O)Cn1nc(-c3ccccc3F)ccc1=O)OCCO2,14,-11%,-21,5,-0.8,
Cc1cc(C)n2nc(SCC#N)nc2n1,?,-5%,-6,6,-0.2,Arbovirus inh repeat=-1
COc1cccc(CNC(=O)c2ccc(S(=O)(=O)N3CCCC3)cc2)c1,1,-7%,-14,-1,-5.3,
CC(=O)Nc1ccccc1C(=O)OCc1ccc(C(=O)c2ccccc2)cc1,18,14%,-39,-2,12,
COc1ccc(CCNC(=O)Cn2c(=O)n(-c3cc(F)ccc3F)c(=O)c3sccc32)cc1OC,-5,-2%,.,13,-0.1,
CCN(CC(=O)Nc1c(F)cccc1F)C(=O)CN(C)S(=O)(=O)c1ccc(F)cc1,-11,.,.,.,0.4,
CCN1C(=O)N[C@@H](c2cccc(F)c2)C(C(C)=O)=C1C,-5,-8%,.,.,-0.3,
CCOC(=O)N1CCN(C(=O)CN(Cc2ccccc2)S(=O)(=O)c2ccc(OC)c(C)c2)CC1,-4,10%,-7,1,-1.9,
Cc1ccccc1N(CC(=O)N1CCN(c2ccccc2)CC1)S(C)(=O)=O,-4,-5%,-8,3,2.1,
O=C1CCN(CCCc2ccccc2)CCN1[C@H](CO)Cc1ccccc1,-8,.,.,.,-1.1,
O=C1CCC([N+](=O)[O-])C(c2ccccc2F)N1 (configuration not stated),2,.,.,.,-3.0,
CCCn1nnc(NC(=O)c2ccc(OC)cc2)n1,-2,1%,-12,0,4.5,
CCCCCCC(=O)NC(Nc1ccc(S(N)(=O)=O)cc1)C(Cl)(Cl)Cl (configuration not stated),-12,5%,-4,9,3.7,
CC1CC2(CC(C)(C(=O)CSc3n[nH]c(-c4ccccc4Cl)n3)OC2=O)C(=O)O1 (configuration not stated),8,-9%,-37,5,0.0,
CC(C)(C)NS(=O)(=O)c1ccc(NC(=O)C2CCCO2)cc1 (configuration not stated),4,.,.,.,1.1,
CC1CCC(C(=O)NC(C(=O)NCCN2CCC(C)CC2)C(C)C)CC1 (configuration not stated),.,-14%,6,-4,1.6,
COc1cccc(NC(=O)CSc2nnc(-c3cccnc3)o2)c1,-12,.,.,.,5.6,
O=C(C1CCCO1)N1CCc2ccccc21 (configuration not stated),-4,-2%,13,3,4.9,
Cc1ncc(CO)c2cc(C(=O)Nc3cccc(F)c3)c(=Nc3cccc(C(N)=O)c3)oc12,0,.,.,.,-1.8,
